Assay outcomes: PubChem BioAssay, several laboratories
CSC inhib: cancer stem cell viability inhibitors, primary screen, luminescence; actives 1.1% (n = 300,000); inhibition, % at 7.5 µM; AID 2717, 2010; cancer stem cell-like cells viability;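 active means mean at 75% or more and at least half the replicates too; inconclusive means mean and replicates disagree; tested in HMLE shEcad cells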;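 further: 0% = median of negative and 100% = median of positive control wells; the first replicate is given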
PABP polyA inh: PABP poly(A) RNA binding inhibitors, primary screen, biochemical, fluorescence polarization, uHTS; Polyadenylate-binding protein 1 (Homo sapiens), P11940; inhibition, % at 35 µM; actives 1% (n = 290,000);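 active means 50% or more with normal probe brightness, or confirmed in later tests; inconclusive means above 50% with abnormal brightness, or retests that disagree; inactive means below 50% or failed in later tests; about a fifth of its hits are not listed in these tables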;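 further: calls also rest on retests at 20 µM and on dose response follow-up; controls were probe without protein and protein plus probe with vehicle; some compounds called inactive have numbers as strong as hits; many hits fall short of the cut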
MT1-MMP act inh: blockers of MT1-MMP proenzyme processing, primary screen, HT1080 RFP-PRO-GFP cells, GFP/RFP fluorescence | GFP/RFP ratio fluorescence, overnight; percent of plate control window, DMSO zero | GFP/RFP ratio change, % at 20 µM | actives 0.061% (n = 360,000);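 active means GFP/RFP ratio change of at least 30% with cell ATP level not reduced by more than half and red fluorescence within 50% of control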; further: strong numbers were not always called active
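Material – HT1080 RFP-PRO-GFP cells · Control set – DMSO wells and RFP-L50D-GFP cells · Incubation – overnight cell settling, then overnight compound exposure, 37 °C, 5% CO2 · Compound dosing – single-point 20 µM compound, 1% DMSO · Read-out – GFP/RFP fluorescence ratio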
eIF4H inh: human eIF4H binding inhibitors, primary screen, translation initiation inhibitor project, biochemical, uHTS, fluorescence polarization; Eukaryotic translation initiation factor 4H (Homo sapiens), Q15056; inhibition, % at 35 µM; actives 0.94% (n = 290,000); eIF4H fluorescence polarization binding assay;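 active means 50% or more with normal probe brightness, or confirmed in later tests; inconclusive means above 50% with abnormal brightness, or retests that disagree; inactive means below 50% or failed in later tests; about a fifth of its hits are not listed in these tables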;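 further: calls also rest on retests at 20 µM and on dose response follow-up; 0% = protein and probe with vehicle and 100% = probe without protein; strong numbers were not always called active; many hits fall short of the cut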
UUG fidelity: modulators of yeast start codon fidelity, primary screen, whole organism, S. cerevisiae, single point, plate reader; S. cerevisiae UUG-firefly luciferase reporter, luminescence/redox ratio; activity score, % at 18.7 µM; actives 0.13% (n = 350,000); AID 602363, 2012;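 active means replicate mean at a twofold rise or more, about +100% in these data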;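 further: firefly luciferase made from a UUG start codon reports start codon fidelity; reporter light over untreated wells divided by growth signal over untreated wells; some hits fall short of that in this replicate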
Rce1 inhib: yeast Rce1p protease inhibitors, primary screen, biochemical, fluorescence, cell-free homogeneous. yeast membranes, quenched prenylated peptide cleavage fluorescence. calls only. actives 0.27% (n = 290,000);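 active means fall in fluorescence gain of 50% or more versus controls, with final raw signal at or below 3038400; inconclusive means same 50% fall but final raw signal above 3038400; inactive means fall in fluorescence gain under 50%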;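 further: plate controls were neutral control wells for no effect and wells lacking membranes for full effect; tested at 10 µM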
Target sequence (Q03530 whole entry, looked up): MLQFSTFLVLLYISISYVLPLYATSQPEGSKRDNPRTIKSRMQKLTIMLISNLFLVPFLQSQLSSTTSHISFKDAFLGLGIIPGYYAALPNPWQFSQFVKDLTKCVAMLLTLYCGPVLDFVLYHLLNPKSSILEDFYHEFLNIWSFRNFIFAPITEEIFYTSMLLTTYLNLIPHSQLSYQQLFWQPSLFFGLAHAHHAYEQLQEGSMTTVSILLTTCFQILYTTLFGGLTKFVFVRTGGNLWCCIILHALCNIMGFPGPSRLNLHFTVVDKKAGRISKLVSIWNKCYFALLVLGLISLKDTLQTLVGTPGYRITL
HIV Env fusion: inhibitors of HIV-1 Env-driven cell-cell fusion, primary screen, HeLa-JRFL effector, CEM21 target cells, luciferase | inhibition, % at 12.3 µM | actives 1.1% (n = 360,000) | AID 651610, 2012;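 active means mean replicate inhibition score of at least 50 and every replicate individually at or above 50; inconclusive means only one of the two criteria met; inactive means mean below 50 and not all replicates reaching 50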;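 further: 0% = plate neutral controls and 100% = maraviroc near 300 nM; one replicate is shown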
eIF4H inh retest: second read-out of eIF4H inh, no call of its own (marks repeat the call); inhibition, %; compound at 20 µM; confirmation average;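 mean of two retest wells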
PABP polyA inh retest: recorded beside PABP polyA inh, whose call it bears; inhibition, %; compound at 20 µM; confirmation repeats;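 mean of two retest wells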
MT1-MMP act inh RFP: further read-out of MT1-MMP act inh, marked with its call; RFP signal change, %; measured here: RFP expression control read;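 0 = vehicle wells; hits needed this value within 50% of zero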
* hit, by the source's call; i = inactive; ? = inconclusive; nt = no result given; & = joins results of further samples; [ ] = remark or other dose. Hits appear at their usual frequency; any-hit rate near 2.9%.

SMILES | CSC inhib | PABP polyA inh | MT1-MMP act inh | MT1-MMP act inh RFP | eIF4H inh | UUG fidelity | Rce1 inhib | HIV Env fusion | others
COc1ccc(Nc2oc(COc3ccc(OC)cc3)nc2C#N)cc1 | 16 | -2 | -4 | -8 | 1 | 11 | i | 31
Cc1c2ccccc2nc2c(F)c(N(C)C)c(F)c(F)c12 | nt | 2 | -69 | 15 | 24 | -17 | i | -220
COC(=O)C1CCN(C(=O)C(C)Oc2ccc(Cl)cc2Cl)CC1 (centres undefined) | -9 | 4 | 3 | 1 | -7 | nt | i | nt
Cc1ncc([N+](=O)[O-])n1CC(=O)Nc1ccc(F)cc1F | -8 | -10 | -1 | 1 | -1 | -5 | i | -17
CC1CN(C(C)C(=O)NNC(=O)c2ccc(F)cc2)CC(C)O1 (centres undefined) | -10 | nt | 0 | 2 | nt | -5 | nt | nt
COc1ccc(CNC(=O)CN(C(=O)CCC(=O)Nc2nccs2)c2ccccc2C)cc1 | -10 | 4 | -2 | 3 | -9 | -7 | i | 4
COc1ccc(C(=O)N2CCCCCC2)cc1OC1CCN(C(C)C)CC1 | 5 | -14 | 0 | 5 | 11 | 4 | i | 6
O=C1C2CCCN2c2ccc(S(=O)(=O)N3CCOCC3)cc2N1Cc1ccccc1F (centres undefined) | -14 | 5 | 6 | 1 | -1 | -17 | i | nt
O=C(c1cccs1)N(c1ccc(Br)cc1)C1C=CS(=O)(=O)C1 (centres undefined) | -13 | 9 | -6 | -6 | -5 | nt | i | -11
CC1(C)CC(=O)C=C(NC2CCCCCCC2)C1 | -13 | 4 | -7 | 1 | 19 | -7 | i | -5
Cc1cc(=O)oc(C)c1C(=O)OCC(=O)c1ccccc1 | -7 | 13 | 2 | 5 | -4 | -11 | i | -41
CC(C)Cc1nnc(NC(=O)CCc2ccccc2)s1 | -13 | -7 | -3 | -5 | -4 | -19 | i | -5
COc1ccccc1NC(=O)CCNC(=O)c1ccc(C)cc1 | -2 | 1 | 2 | 2 | 3 | -18 | i | -2
O=C(C1CCC1)N1CCN(S(=O)(=O)c2cc(F)ccc2F)CC1 | nt | nt | 3 | 6 | nt | 4 | nt | -42
CCOC(=O)C1=C(C)N=c2s/c(=C\c3cc(OC)c(OC)c(OC)c3)c(=O)n2C1/C=C/c1ccccc1 (centres undefined) | -15 | -5 | -5 | -5 | -10 | -34 | i | 5
COc1ccc(C(=O)C2CCN(C(=O)c3ccc(C)cc3)CC2)cc1 | -8 | 4 | 11 | -11 | -1 | 73 | i | 86*
O=C(Nc1nc(-c2ccccn2)cs1)C1CC1 | -3 | -7 | -3 | 2 | -5 | -10 | i | -19
CNC(=O)CC(CC(=O)c1ccccc1)c1ccccc1 (centres undefined) | 2 | nt | -1 | 1 | nt | -24 | nt | -34
COc1cccc2c1OC[C@@H](CO)[C@H]2N(C)C(=O)Nc1ccc(Cl)cc1 | -12 | -18 | -2 | -3 | -17 | -16 | i | -1
COCc1c(C(=O)OCC(=O)NCCc2ccc(S(N)(=O)=O)cc2)oc2ccccc12 | -5 | nt | -2 | 1 | nt | -30 | nt | nt
Cc1ccc(Cc2c(C3CCCCC3)nc3cc(C)c(Br)c(C)n23)cc1 | nt | nt | -1 | -2 | nt | 0 | nt | 4
Cc1ccc(-c2noc(CCC(=O)N(C)c3ccccc3C)n2)cc1 | -11 | 0 | 2 | -11 | 1 | -35 | i | nt
CCOC(=O)c1cc(CO)cc(C(=O)OCC)c1 | nt | 6 | 2 | 2 | 2 | nt | i | 1
C[C@@H]1CN([C@@H](C)CO)C(=O)c2cc(NS(=O)(=O)c3ccc(Cl)cc3)ccc2O[C@H]1CN(C)Cc1ccncc1 | 0 | nt | -3 | -1 | nt | -8&-6 | nt | -4[16.7 µM]
COc1ccc(CNC(=O)c2ccc(N3CCC4(CC3)CC(c3ccc(Cl)cc3)=NO4)c(NC(=O)c3ccccc3)c2)cc1 | 0 | nt | 1 | -2 | nt | -23 | i | 35
Cc1noc(C)c1COc1ccc(C(=O)NCCc2ccc(S(N)(=O)=O)cc2)cc1 | -3 | nt | 6 | 3 | nt | -12 | i | -5
C[C@H](NC(=O)c1ncn2c1C(=O)N[C@@H](C)C2)c1ccccc1 | nt | nt | -1 | -5 | nt | -23 | nt | 10
Fc1cccc(Cl)c1/C=N/n1c(-c2cccnc2)n[nH]c1=S | -8 | -2 | -3 | -1 | 2 | nt | i | 16
Brc1ccc(CSc2nnc(Cc3c[nH]c4ccccc34)o2)cc1 | 22 | -10 | -5 | -5 | -4 | -10 | i | 21
Cc1cccc(C(O)c2cnc(C)n2Cc2ccccc2)c1 (centres undefined) | nt | nt | -1 | 1 | nt | -30 | nt | 2
O=S(=O)(c1cccc(-c2nc3ccccc3s2)c1)N1CCCC1 | nt | 3 | -6 | -9 | -9 | -9 | i | nt
CCOc1ccc(OCCC(=O)OCC(=O)NCc2ccc(Cl)cc2)cc1 | -3 | nt | -6 | 3 | nt | -25 | i | 1
O=C(Nc1ccc(NC(=O)N2CCN(c3ccccc3O)CC2)cc1)N1CCN(c2ccccc2O)CC1 | 12 | -8 | 7 | 4 | -8 | 5 | i | 0
Cc1cc(C)n(-c2ccc(C(=O)OCC(=O)NCc3ccc(F)cc3)cc2)n1 | nt | 0 | 1 | 6 | 0 | -13 | i | 23
CC1C(=O)N(Cc2cn(CCC3OCCO3)nn2)CCS(=O)(=O)N1Cc1ccc(-c2cccc(N(C)C)c2)cc1 (centres undefined) | nt | nt | -3 | 0 | nt | -10 | nt | 3
O=C(Nc1ccccc1)c1cc(C2CCCCN2S(=O)(=O)c2ccccc2)on1 (centres undefined) | nt | nt | -5 | -9 | nt | 3 | nt | -3
CCn1cc(C(=O)NN)c(=O)c2cc(F)c(NC3CCCCC3)cc21 | nt | -8 | -5 | 2 | -8 | -18 | i | 7
Cc1c(-n2c(SCC(=O)NC(C)C(C)C)nc3ccccc3c2=O)c(=O)n(-c2ccccc2)n1C (centres undefined) | -10 | 35 | 2 | 2 | 3 | nt | i | 3
O=C1CCCN1CCC1CCCCN1Cc1nc(COc2ccccc2)no1 (centres undefined) | -7 | -1 | -3 | 1 | 3 | 4 | i | 6
c1cc2nnnn2nc1N1CCCCC1 | -4 | 0 | 0 | 2 | 0 | -20 | i | nt
CNC(=O)Nc1cccc(NC(=O)NC)n1 | -6 | 8 | 10 | 8 | -7 | -4 | nt | -162
CCn1c(CSc2nc3ccccc3s2)n[nH]c1=S | -17 | 2 | 2 | 4 | -10 | -13 | i | -25
Cc1ccc(NC(=O)CS(=O)CC(=O)Nc2cccc(C)c2C)cc1F (centres undefined) | 3 | 3 | 8 | 1 | -6 | 5 | i | -23
CCCn1nnnc1SCC(=O)N1CCCc2ccccc21 | -14 | -4 | -2 | -1 | -7 | -44 | i | 13
Cc1ccc(C)c(NC(=O)c2nc(-c3ccccc3)n(-c3ccccc3)n2)c1 | -8 | -3 | -7 | -9 | -4 | -8 | nt | -8
COc1cc2c(cc1OC)C(/C(C#N)=N\O)=NC(C)(C)C2 | -18 | 22 | 1 | 2 | -4 | -12 | i | -53
CC1CCc2c(sc(NC(=O)c3ccco3)c2C(=O)O)C1 (centres undefined) | 17 | 4 | -4 | 1 | -2 | -8 | i | 4
O=C(Nc1ccccc1Cl)c1ccccc1Oc1ccc(C(F)(F)F)cc1[N+](=O)[O-] | -1 | -10 | -6 | -9 | -2 | -7 | nt | nt
Cc1cc(C)c(C)c(S(=O)(=O)N2CCN(CC(=O)Nc3ccc([N+](=O)[O-])cc3)CC2)c1C | 5 | 40 | 3 | 6 | 9 | nt | i | 10
CCCCn1c(N)c(N(Cc2ccccc2OC)C(=O)COc2ccc(F)cc2Cl)c(=O)[nH]c1=O | 0 | -2 | 3 | 4 | -7 | -5 | i | -20
CCOc1ccccc1OCCOc1cccc(C(F)(F)F)c1 | 9 | -5 | 12 | -1 | -7 | -3 | i | nt
COc1cc2oc(=O)cc(CN3CCCC3)c2cc1Cl | nt | nt | 4 | 4 | nt | -6 | nt | ?
O=C(CC1C(=O)NCCN1Cc1ccc(-c2ccccc2)cc1)NC1CCC1 (centres undefined) | 14 | 0 | -2 | -1 | -5 | nt | i | -9
Nc1cccc2c1C(=O)N(C(=O)/C=C/c1cccc(F)c1)C2=O | 25 | -10 | 1 | 3 | 2 | nt | i | -21
CC(=O)NC1C(OC(=O)/C=C/c2ccccc2)OC(COC(C)=O)C(OC(C)=O)C1OC(C)=O (centres undefined) | 16 | 10 | -4 | -1 | -7 | -8 | i | 4
N#Cc1c(-c2ccc(Cl)cc2Cl)nc2n(c1=O)CCS2 | -12 | -2 | 5 | 5 | 11 | -20 | i | nt
Cc1ccccc1-c1nc(C(=O)NCC2CCCO2)cc2c1[nH]c1ccccc12 (centres undefined) | -12 | -3 | -11 | -21 | -9 | 3 | i | nt
CCOc1ccccc1NC(=O)c1cnc(NS(=O)(=O)c2ccccc2)nc1 | nt | 2 | -1 | 2 | 4 | -12 | i | 7
COc1ccc(S(=O)CC(=O)Nc2ccccc2Cl)cc1 (centres undefined) | -9 | 6 | 0 | 3 | 4 | nt | i | 2
CC[n+]1cc(-c2ccccc2)nc(N2CCOCC2)n1 | 15 | 68* | -4 | -4 | -3 | 0 | i | nt | eIF4H inh retest=11;PABP polyA inh retest=95*
Other structures.
SMILES | CSC inhib | PABP polyA inh | MT1-MMP act inh | MT1-MMP act inh RFP | eIF4H inh | UUG fidelity | Rce1 inhib | HIV Env fusion | others
Cc1cc(C)c2oc(C(=O)N3CCN(C)CC3)cc(=O)c2c1 | -14 | 1 | 4 | 7 | 7 | -3 | i | 2
CCOC(=O)C1=C(Cn2ccc(C(F)(F)F)n2)NC(=O)NC1c1ccc2c(c1)OCO2 (centres undefined) | nt | -13 | 7 | -1 | 0 | -5 | i | nt
COc1ccccc1NC(=O)CSc1nnc(CNC(=O)c2cccs2)o1 | -14 | 10 | 0 | 4 | -6 | -13 | i | 8
Cc1nn(-c2ccc(F)cc2)c(Cl)c1/C=C(\CC(=O)O)c1nc2ccccc2s1 | -11 | 4 | 2 | 5 | -3 | -10 | i | -1
NC(=O)[C@H]1CC2(CC(c3cccc(NC(=O)c4ccccc4)c3)=NO2)CN1C(=O)[C@H]1CCC(=O)N1 (some centres undefined) | -11 | -4 | 3 | 1 | 3 | -3 | i | 16
CCOC(=O)CC1=CC(C)(CC(=O)OCC)C(C#N)(C#N)C(N)=C1C#N (centres undefined) | -12 | -9 | -2 | 2 | -3 | 0 | i | nt
O=C(O)c1cccc(NC(=O)c2ccc(CN3C(=O)c4ccccc4C3=O)cc2)c1 | -13 | -3 | -2 | 3 | 13 | -3 | nt | -4

2 compounds drawn at random from the list so far, as already listed:
SMILES | CSC inhib | PABP polyA inh | MT1-MMP act inh | MT1-MMP act inh RFP | eIF4H inh | UUG fidelity | Rce1 inhib | HIV Env fusion | others
Cc1ccccc1-c1nc(C(=O)NCC2CCCO2)cc2c1[nH]c1ccccc12 (centres undefined) | -12 | -3 | -11 | -21 | -9 | 3 | i | nt
O=C(CC1C(=O)NCCN1Cc1ccc(-c2ccccc2)cc1)NC1CCC1 (centres undefined) | 14 | 0 | -2 | -1 | -5 | nt | i | -9
